Bioassay records deposited in PubChem by National Center for Advancing Translational Sciences (NCATS).
PMP22 txn: Cell-based coincidence reporter assay to measure PMP22 gene transcription in S16 Pmp22-F2sN cells - Primary screen; S16 Pmp22-F2sN Schwann cells (luciferase reporters placed in the Pmp22 gene), FLuc/NLuc coincidence luminescence, 24 h; Potency, µM (doses to about 57.5 µM), without a hit: at the highest dose activity change, negative = inhibition, hits mostly inhibitors; actives 2% (n = 43,000); AID 1508649, 2021; active = clear falling dose curves in both reporters; inconclusive = both reporters move, but less clearly or upward; inactive = either reporter flat; the % is the NLuc reporter signal; also: % is scaled to controls: 0 for no effect and ±100 for the full control effect; some results filed as inactive show a strong effect at the top dose
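Rat S16 Pmp22-F2sN cells, 500-1,000/well in phenol red-free DMEM + 10% FBS, compound-treated 24 h (37C, 5% CO2). Luminescence: FLuc read, Stop&Glo added, NLuc read.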
HTT promoter inh: Primary qHTS for Identification of Small Molecule Inhibitors of Huntingtin Promoter Activity. HEK293 HTT promoter firefly luciferase reporter (activity 0% = vehicle and -100% = no light), 24 h. Potency, µM (titrated, usually from 57.5 µM), for inactives: top-dose activity change, negative = inhibition, most hits filed as inhibitors. actives 0.93% (n = 48,000). AID 1508623, 2021; active = well fitted inhibition curve with a large enough effect; inconclusive = small, poorly fitted or top-dose-only effect; inactive = no such curve, though single readings can be large or run the other way; also: nearly all actives have a fitted effect of over 50% in size
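HEK293 Fluc reporter, 2,500 cells/well, 24 h pre-culture; cpds up to 57.5 uM final, 24 h 37 degrees C; Dual-Glo, 10 min RT; normalized vehicle = 0%, zero RLU = -100%.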
Active calls of the source: *; u = inconclusive; x = no result given; [ ] = remark or other dose. Potency is read from the fitted curve at half-maximal effect.

1: Cc1cc(-c2nc3ncccc3o2)ccc1NC(=O)c1ccc(Cl)cc1
2: COc1ccc(/C=C/C(=O)Nc2nc3n(n2)C(c2ccc(F)cc2)C=C(c2ccccc2)N3)cc1 (centres undefined)
3: CC(=O)c1ccc(N2CCN(c3ncnc4c3cnn4-c3cc(Cl)ccc3C)CC2)cc1
4: Cc1ccccc1CNC(=O)Cn1cc2c(n1)-c1c(oc(C(=O)N3CCCC3)c1C)CC2
5: Cc1ccc(Cl)cc1N1CCN(C(=O)C2CCN(Cc3nc(-c4ccc(Cl)cc4)oc3C)CC2)CC1
6: CON(C)C(=O)N1N=C(c2cc(F)ccc2F)S[C@]1(CCCN)c1ccccc1
7: CCCNC(=O)c1cnn(-c2ccc(C)c(C)c2)c1C1CCN(C(=O)OC(C)(C)C)CC1
8: Cc1cccc(C)c1OCC(=O)N[C@@H](Cc1ccccc1)[C@@H](O)C[C@H](Cc1ccccc1)NC(=O)[C@H](C(C)C)N1CCCNC1=O

Compound | 1 | 2 | 3 | 4 | 5 | 6 | 7 | 8
PMP22 txn | -9% | -8% | u | -43% | u | x | -8% | x
HTT promoter inh | 2% | u | u | -28% | -18% | -22% | -9% | u

9: COc1cc(OC)cc(C(=O)N2CCN(C(=O)COc3ccc(C)cc3)CC2)c1
10: COc1ccc(CNC(=O)CCn2cccn2)cc1
11: CC1CCc2c(cc(-c3ccccc3)n2-c2ccc(C(=O)NC(C)C)cc2)C1 (centres undefined)
12: O=C(NCCc1ccccc1)c1ccc2c(c1)CCN2S(=O)(=O)c1ccc(Cl)cc1
13: CCOc1ccc(-n2c(SCC(=O)NCC3CCCO3)nc3c([nH]c4ccccc43)c2=O)cc1 (centres undefined)
14: Cc1ccccc1C(=O)Nc1cccc(C(=O)OCc2cc(=O)n3c4c(sc3n2)CCCC4)c1
15: Cn1cnc(S(=O)(=O)N2CCCC(C(=O)NCc3ccccc3Cl)C2)c1 (centres undefined)
16: CC(=O)c1cccc(NS(=O)(=O)c2ccc3c(c2)NC(=O)CC(=O)N3)c1

Compound | 9 | 10 | 11 | 12 | 13 | 14 | 15 | 16
PMP22 txn | -15% | 2% | 13µM* | -12% | -19% | u | -5% | -1%
HTT promoter inh | 6% | -7% | -18% | u | -11% | -19% | -20% | -13%

17: CCN(CC)S(=O)(=O)c1ccc2nc(NC(=O)c3cncc(Br)c3)sc2c1
18: Cc1ccc(-c2c(CN3CCN(c4cc(Cl)ccc4C)CC3)csc2C)cc1
19: CCOC(=O)c1cccc(NC(=O)c2cn(-c3cccc(OC)c3)c(=O)c3ccccc23)c1
20: O=C(Nc1cc(F)ccc1F)N1CCC(CN2CCOCC2)CC1
21: Cc1cccc(-n2ncc(C(=O)N3CCN(C(=O)c4ccco4)CC3)c2C2CCN(C(=O)OC(C)(C)C)CC2)c1
22: CCCN(c1ccc(C(C)C)cc1)S(=O)(=O)c1ccc2c(c1)n(C)c(=O)c(=O)n2C
23: CCOC(=O)c1cc(S(=O)(=O)N2CCN(c3ccc(C)cc3C)CC2)[nH]n1
24: O=C(Nc1ccc(Oc2ccc(Cl)cc2)c(Cl)c1)c1cc(I)cc(I)c1O

Compound | 17 | 18 | 19 | 20 | 21 | 22 | 23 | 24
PMP22 txn | u | 18% | 22% | 2% | -46% | u | 3% | x
HTT promoter inh | -21% | -10% | -7% | -11% | 6% | -8% | -2% | -1%

25: O=C(NCc1cccs1)C1CCN(C(=O)N2CCOc3ccc(Cl)cc32)CC1
26: Cc1cc(C)c2nc(N(Cc3cccnc3)C(=O)CCOc3ccccc3)sc2c1
27: CCOC(=O)N1CCN([N+]([O-])=NOc2ccc([N+](=O)[O-])cc2C#N)CC1
28: O=C(CSc1cn(CCNC(=O)c2c(F)cccc2F)c2ccccc12)Nc1ccc(F)cc1
29: Cc1ccc(-n2cc(C(=O)OCc3ccc(F)c(F)c3)c3ccccc3c2=O)cc1
30: Cc1ccc(S(=O)(=O)n2nc(C)c(S(=O)(=O)N3CCCCCC3)c2C)cc1
31: CSc1ccc(CCNC(=O)c2ccc(-c3nc(COc4ccccc4)c(C)o3)cc2)cc1
32: Cc1ccc(C(=O)C(=O)O)cc1C

Compound | 25 | 26 | 27 | 28 | 29 | 30 | 31 | 32
PMP22 txn | -10% | u | x | -26% | -3% | 7% | -16% | x
HTT promoter inh | -13% | -1% | -22% | -27% | -17% | -16% | -8% | -3%

33: Cc1ccc(-c2noc(-c3nnn(CC(=O)Nc4cccc(C(F)(F)F)c4)c3N)n2)cc1
34: CCOc1cc(C2C(C(=O)OC)=C(C)NC3=C2C(=O)c2ccccc23)c(Br)cc1O (centres undefined)
35: Cc1ccc(NC(=O)Nc2cccs2)c(C)c1
36: CCOC(=O)c1cc(-c2ccc(F)cc2)n(CCC(=O)NCc2ccc(C)cc2)c1C
37: Fc1ccccc1N1CCN(c2nccn3nc(-c4ccc(Br)cc4)cc23)CC1
38: Cc1cc(S(=O)(=O)Nc2ccc(O)c(Sc3nc4ccccc4s3)c2)ccc1Cl
39: COc1cc(C2C(C(=O)Nc3ccc(C)cc3C)=C(C)Nc3nc(SCc4ccccc4)nn32)cc(OC)c1OC (centres undefined)
40: Cc1cccc(N2CC(c3nc4ccc(C)cc4[nH]3)CC2=O)c1 (centres undefined)

Compound | 33 | 34 | 35 | 36 | 37 | 38 | 39 | 40
PMP22 txn | u | u | u | -22% | -7% | u | -1% | -24%
HTT promoter inh | 19% | -30% | -4% | u | -14% | -10% | -14% | -5%

Retrieved by structure from the list above:
36: CCOC(=O)c1cc(-c2ccc(F)cc2)n(CCC(=O)NCc2ccc(C)cc2)c1C
40: Cc1cccc(N2CC(c3nc4ccc(C)cc4[nH]3)CC2=O)c1 (centres undefined)
38: Cc1cc(S(=O)(=O)Nc2ccc(O)c(Sc3nc4ccccc4s3)c2)ccc1Cl
34: CCOc1cc(C2C(C(=O)OC)=C(C)NC3=C2C(=O)c2ccccc23)c(Br)cc1O (centres undefined)
37: Fc1ccccc1N1CCN(c2nccn3nc(-c4ccc(Br)cc4)cc23)CC1
39: COc1cc(C2C(C(=O)Nc3ccc(C)cc3C)=C(C)Nc3nc(SCc4ccccc4)nn32)cc(OC)c1OC (centres undefined)

Compound | 36 | 40 | 38 | 34 | 37 | 39
PMP22 txn | -22% | -24% | u | u | -7% | -1%
HTT promoter inh | u | -5% | -10% | -30% | -14% | -14%

(more compounds)
41: OCc1ccc(-c2nn(Cc3ccccc3)c3ccccc23)o1
42: Cc1nn2c(=O)cc(COC(=O)c3cccc(NC(=O)COc4ccc(C)c(C)c4)c3)nc2s1
43: C#Cc1cccc(Nc2ncnc3cc(OCCOC)c(OCCO)cc23)c1
44: Cc1[nH]c2ccccc2c1CCNCc1ccc(C=CC(=O)NO)cc1
45: O=C(Nc1cc(Cl)cc(Cl)c1)c1cc(S(=O)(=O)N2CCc3ccccc3C2)ccc1F
46: Cc1cc2ccccc2n2c(SCC(=O)Nc3cccc(C(F)(F)F)c3)nnc12
47: CCCCN(C)CCNC(=O)c1ccc2c(=O)n(CCc3ccccc3)c(=O)[nH]c2c1
48: Cc1cc(C)c2c(=O)c3c(oc2c1)C(=O)N(Cc1ccco1)C3c1ccc(F)cc1 (centres undefined)

Compound | 41 | 42 | 43 | 44 | 45 | 46 | 47 | 48
PMP22 txn | x | -17% | x | x | 0% | -4% | u | -17%
HTT promoter inh | u | -4% | u | 266%[activator] | -28% | -18% | 3% | -23%

Profiles, quoted from the list. Order of screens: PMP22 txn, HTT promoter inh
`Cc1[nH]c2ccccc2c1CCNCc1ccc(C=CC(=O)NO)cc1` in the list: x, 266%[activator]
`C#Cc1cccc(Nc2ncnc3cc(OCCOC)c(OCCO)cc23)c1` in the list: x, u

Following part.
49: CCOC(=O)C1CCCN(C(=O)c2[nH]c3ccccc3c2Sc2ccc(Cl)cc2)C1 (centres undefined)
50: COc1ccc2ncc3c(-c4ccc(C)c(C)c4)nn(CC(=O)Nc4ccccc4)c3c2c1
51: CN(C)CC/C=C1\c2ccccc2Sc2ccc(Cl)cc21
52: CCCNC(=O)c1cc2n(n1)CCCN(Cc1ccc(C)cc1)C2=O
53: COc1cc(C2Nc3c(C)cc(C)cc3-c3cc(C)nn32)cc(OC)c1O (centres undefined)
54: Fc1ccc(Nc2nc(-c3cccc(Cl)c3)c3c(n2)-c2ccccc2OC3)c(F)c1
55: O=C(CSc1nnc2[nH]c(=O)cc(-c3ccccc3)n12)Nc1ccccc1C(F)(F)F
56: COc1ccc2c(CNCCc3ccccc3C)c(C(=O)O)n(Cc3ccccc3C)c2c1

Compound | 49 | 50 | 51 | 52 | 53 | 54 | 55 | 56
PMP22 txn | 7% | u | x | -3% | u | -8% | 5% | 11%
HTT promoter inh | u | u | -17% | -21% | -22%[11.5 µM] | -13% | 46%[activator] | 3%

57: CCCCN(C)C(=O)Cn1c(SCC(=O)Nc2ccc(C)c(C)c2)nc2ccccc21
58: CCSc1nc2c([nH]c3ccccc32)c(=O)n1-c1ccc(OC)cc1
59: COc1ccc(-c2c(C#N)c(SCC(=O)Nc3ccccc3C)nc(C)c2C(=O)Nc2ccccc2)cc1OC
60: COc1ccc(NC(=O)C2CCCN(S(=O)(=O)c3c(C)[nH]c(=O)[nH]c3=O)C2)cc1 (centres undefined)
61: CC(C)(C)NC(=O)[C@@H]1CN(Cc2cccnc2)CCN1C[C@@H](O)C[C@@H](Cc1ccccc1)C(=O)N[C@H]1c2ccccc2C[C@H]1O
62: COCCn1c2c([n+](Cc3cnccn3)c1C)C(=O)c1ccccc1C2=O
63: CCn1cc(C(=O)N2CCN(c3ccccc3)CC2)c(=O)c2cc(S(=O)(=O)N3CCOCC3)ccc21
64: O=C(NC1CCCCC1)c1ccc(CSc2nc3ccncc3n2Cc2ccccc2F)cc1

Compound | 57 | 58 | 59 | 60 | 61 | 62 | 63 | 64
PMP22 txn | -7% | -10% | 3% | 8% | x | x | -2% | -23%
HTT promoter inh | -30% | 0% | -20% | -13% | 4% | u | 0% | -9%

65: COc1ccc(CCNC(=O)c2ccc(CNS(=O)(=O)c3ccccc3)cc2)cc1OC
66: Cc1cc(NC(=O)CSc2ncc(C(=O)Nc3ccc(Cl)cc3)c(=O)n2C)no1
67: CC(=O)N1CCCc2cc(S(=O)(=O)N3CCCC(C(=O)NC(C)C)C3)ccc21 (centres undefined)
68: Clc1cccc(-n2ncc3c(NCCCN4CCOCC4)ncnc32)c1
69: C[C@H]1O[C@H](O[C@H]2[C@H](O)[C@@H](O)[C@@H](O[C@H]3[C@H](O)[C@@H](O)[C@H](O)O[C@@H]3CO)O[C@@H]2CO)[C@H](O)[C@@H](O)[C@@H]1N[C@H]1C=C(CO)[C@@H](O)[C@H](O)[C@H]1O
70: COc1ccc(-n2cc(-c3ccc4c(c3)OCO4)n(CC(=O)Nc3cc(Cl)ccc3C)c2=O)cc1
71: Cc1ccc2c(=O)cc(C(=O)NCc3ccccc3)oc2c1
72: Cc1ccc(C)c(CN2C(=O)c3ccccc3S(=O)(=O)c3ccc(C(=O)N4CCc5ccccc54)cc32)c1

Compound | 65 | 66 | 67 | 68 | 69 | 70 | 71 | 72
PMP22 txn | 9% | 6% | 7% | u | x | u | -24% | -14%
HTT promoter inh | -20% | -2% | u | -8% | 5% | 26% | u | -14%

73: CC(C)Sc1nc2sc3c(c2c(=O)n1-c1ccccc1)CCCC3
74: Cc1ccc(-c2noc(-c3ccc(NC4CCCC4)c([N+](=O)[O-])c3)n2)cc1
75: Cc1nc2ccccn2c(=O)c1NC(=O)c1ccc(C(F)(F)F)cc1
76: O=C(c1cccs1)N(Cc1cccnc1)c1nc2c(Cl)cccc2s1
77: Cc1ccc(C)c(CN2C(=O)c3ccccc3S(=O)(=O)c3ccc(C(=O)N4CCN(c5ccccn5)CC4)cc32)c1
78: Cc1cc(C)c2nc(N(Cc3cccnc3)C(=O)Cc3ccccc3)sc2c1
79: Cc1cc(-c2ccc(S(=O)(=O)Nc3cc(Cl)ccc3C)s2)on1
80: CCc1ccc(Cn2c(CNS(=O)(=O)c3ccc4c(c3)CCCC4)nc3cccnc32)cc1
81: CC(C)(C)OC(=O)N1CCC(c2c(C(=O)NCCN3CCOCC3)cnn2-c2cccc(F)c2)CC1
82: Cc1ccc(-n2c3nc(=O)[nH]c(=O)c-3cc3c(C)nn(-c4ccccc4)c32)c(C)c1
83: CCOc1ccccc1N(C)C(=O)Cn1cnc2onc(-c3ccc(F)cc3)c2c1=O

Compound | 73 | 74 | 75 | 76 | 77 | 78 | 79 | 80 | 81 | 82 | 83
PMP22 txn | u | -3% | -1% | -25% | -13% | -21% | u | -25% | 3% | -1% | 4%
HTT promoter inh | -19% | -3% | 14% | u | u | -16% | u | -6% | -25% | -7% | 0%
